Assay outcomes deposited in PubChem by National Center for Advancing Translational Sciences (NCATS).
N370S GC: N370S glucocerebrosidase modulation, Gaucher chaperone candidate; P04062; N370S GC spleen homogenate, 4MU-glucoside fluorescence; Potency, µM (series often up to 59.4 µM), for the others: top-dose activity change, negative = inhibition, hits mostly inhibitors; 330,000 tested, 0.092% active; AID 2101;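 note: 0% = full enzyme activity and -100% = no enzyme basal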
FEN1 inh: blocks human flap endonuclease 1; P39748; Recombinant FEN1 flap cleavage, fluorescence, 15 min; Potency, µM (top dose mostly 114 µM), for the others: top-dose activity change, negative = inhibition, actives largely listed as inhibitors; 390,000 tested, 0.35% active; note: nearly all actives have a fitted effect of over 65% in size
Target sequence (P39748 whole entry, looked up): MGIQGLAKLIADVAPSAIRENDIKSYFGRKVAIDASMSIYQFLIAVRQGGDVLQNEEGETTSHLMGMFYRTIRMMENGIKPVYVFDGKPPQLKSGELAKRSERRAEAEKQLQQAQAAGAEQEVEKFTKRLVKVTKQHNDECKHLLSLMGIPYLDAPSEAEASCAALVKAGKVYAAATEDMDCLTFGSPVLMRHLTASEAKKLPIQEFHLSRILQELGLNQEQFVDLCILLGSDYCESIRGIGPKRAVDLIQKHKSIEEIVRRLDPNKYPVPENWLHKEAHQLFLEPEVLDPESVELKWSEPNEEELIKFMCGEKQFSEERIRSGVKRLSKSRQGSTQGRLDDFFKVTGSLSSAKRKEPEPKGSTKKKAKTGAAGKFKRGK
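Quantitative HTS format: each compound was titrated, incubated with 10 nM nuclease for 15 min at room temperature, then challenged with flap substrate at 50 nM final. Signal change over 15 min gave concentration–effect curves.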
* hit, by the source's call; ? = inconclusive; · = no result given; & = joins results of further samples. Calls come from the whole dose curve; as a rule, active = well fitted curve in the direction sought with a large enough effect; inconclusive = small, poorly fitted or top-dose-only effect, or another doubt; inactive = no such curve, though single readings can be large; an effect the other way counts as inactive or inconclusive. Unless noted, % is set by controls: 0 for no effect and ±100 for the full control effect; potency is the fitted concentration of half-maximal effect.

molecule,N370S GC,FEN1 inh
CCc1nnc(NC(=O)CSc2sc3c(O)cc(=O)[nH]c3c2C#N)s1,-6.8%,4.47µM*
CS(=O)(=O)c1ncc(Cl)c(C(=O)Nc2c(C(=O)Nc3ccccc3)oc3ccccc23)n1,·,1.0%
Cc1ccc(C(=O)COC(=O)C(C)N2C(=O)C3C4CCC(C4)C3C2=O)cc1 (configuration not stated),2.2%,-0.3%
CC(=O)c1sc2nc(=O)c(C)nn2c1C,4.2%,-11.2%
CCOc1ccc(N(CC(=O)Nc2ccc(C)c(C)c2)S(C)(=O)=O)cc1,6.7%,-2.0%
COC(=O)c1scc(C)c1N/N=C(\C)c1ccc(F)cc1F,0.5%,0.2%
Cc1cc(NC(=O)c2ccc(COc3ccc(Cl)c(C)c3)o2)no1,2.6%,-0.1%
CC1CCCCN1c1c(S(=O)(=O)c2ccc(Cl)cc2)cnc2ccccc12 (configuration not stated),·,-18.2%
COc1cc(/C=C/C(=O)OCC(=O)N2CC3(C)CC2CC(C)(C)C3)ccc1O (configuration not stated),-7.3%,-2.5%
CCOC(=O)C1=NOC2COC3(CCN(c4ncccn4)CC3)OCC12 (configuration not stated),-7.0%,-0.9%
CN(C)CCOc1ccc(-c2c(-c3ccsc3)sc3ccccc23)cc1,·,-26.1%
CCOC(=O)C1CCCCN1Cc1ccc(OC)c(OC)c1OC (configuration not stated),-8.9%,3.3%
COc1ccc(/C=C/C(=O)OCC(=O)NC2CCCC(C)C2C)c(OC)c1 (configuration not stated),·,-9.8%
Cc1cc2c(cc1S(=O)(=O)Nc1cccc(C#N)c1)OCC(=O)N2,·,18.7%
CCCCNS(=O)(=O)/C=C/c1ccccc1,1.5%,4.5%
O=C(NCC1CCCO1)C1c2ccccc2C(=O)N1C1CCCCCC1 (configuration not stated),-0.9%,-0.8%
CCCCn1c(N)c(-c2nc3ccccc3o2)c2c([N+](=O)[O-])nn(CC)c(=O)c21,5.7%,-4.8%
Cc1ccc(/C=N/NC(=O)c2nnn(-c3nonc3N)c2CSc2ccc(Cl)cc2)cc1,-0.9%,13.9%
COC(=O)c1sc(N2C(=O)C(O)=C(C(=O)c3ccc(C)o3)C2c2ccc(OC)c(OC)c2)nc1C (configuration not stated),-1.9%,-13.6%
CCC(=O)Nc1ccc(C(=O)Nc2c[nH]c(=O)[nH]c2=O)cc1,5.6%,-1.5%
COC(=O)C1=C(CSc2nc3ccccc3o2)NC(=O)NC1c1cc(C)ccc1C (configuration not stated),10.8%,-11.2%
CC(=O)Nc1cccc(NC(=O)CS(=O)(=O)c2cn(CC(=O)N3CCOCC3)c3ccccc23)c1,1.4%,-1.0%
Cc1cc(Br)c(OCC(=O)NN)c2c1CCC2,5.0%,11.7%
COc1ccc(CNC(=O)COC(=O)[C@H](Cc2ccccc2)NC(=O)c2cccs2)cc1,·,-19.7%
O=C(Nc1nccs1)c1cccc(S(=O)(=O)N2CCOCC2)c1,0.2%,-7.0%
COc1ccc2nc(CCN(C)C(=O)C3CCC(=O)N(Cc4cccc(F)c4)C3)[nH]c2c1 (configuration not stated),3.1%,-5.7%
COc1ccc(-c2nnn(CC(=O)N(CC(=O)NC3CCCC3)c3cccc(C)c3)n2)cc1OC,-7.8%,5.7%
CC(OC(=O)Cn1cnc2c1c(=O)n(C)c(=O)n2C)C(=O)Nc1ccc(Cl)cc1 (configuration not stated),-13.0%,1.3%
O=C(c1ccc([N+](=O)[O-])cc1)N1CCN=C1SCc1ccccc1,0.3%,-11.8%
Cc1nnc(SCC(=O)NC(=O)Nc2ccc3c(c2)OCCO3)s1,1.8%,-4.6%
COc1cccc(C(=O)Nc2cccc(NC(=O)c3cccs3)c2)c1,-0.6%,-14.1%
CCOc1ccc(NC(=O)C(CC)n2nc(C)c3c(C)n(-c4ccccc4)nc3c2=O)cc1 (configuration not stated),1.7%,-11.8%&-12.6%
COc1cc(S(=O)(=O)NCc2ccccc2)ccc1-n1cnnn1,-5.1%,-1.3%
COc1ccc(N2CCN(c3ncnc4c3cnn4C)CC2)cc1,·,13.1%
Cc1ccc(-c2onc(C)c2C)cc1S(=O)(=O)NCc1ccc(N(C)C)cc1,·,3.2%
Cc1cc(C)cc(-n2nnnc2-c2cn(C)nc2C(F)(F)F)c1,-3.0%,-2.2%
Cc1noc(C)c1CSCC(=O)N(C)CC(=O)Nc1ccccc1Br,-19.9%,2.4%
COc1ccc(NC(=O)C2CCCN(S(=O)(=O)c3cccc4nonc34)C2)c(OC)c1 (configuration not stated),-3.1%,-2.2%
O=C(Nc1ccc(S(=O)(=O)N2CCOCC2)cc1)c1ccc2c(c1)OCO2,-6.9%,-2.8%
CCn1c(-c2cc(OC)ccc2OC)csc1=Nc1c(C)n(C)n(-c2ccccc2)c1=O,-5.2%,8.0%
COc1ccc(CCNC(=O)CCCn2ncn3c(cc4occc43)c2=O)c(OC)c1,-0.4%,1.3%
CC/C(=N\NC(=O)c1c(-c2ccccc2)noc1C)c1ccc(C)o1,-4.5%,-1.3%
CCOC(=O)C(C)N1N=C(/C=C/c2ccc(C)cc2)CCC1=O (configuration not stated),1.2%,-7.8%
CC1=C(C)CC(C(=O)NCc2ccccn2)C(C(=O)O)C1 (configuration not stated),-3.0%,15.8%
CNC(=O)c1ccccc1S(=O)c1ccccc1C#N (configuration not stated),6.9%,4.1%
Cc1onc(-c2ccccc2Cl)c1C(=O)NNC(=O)c1cccc(F)c1,-5.6%,4.4%
Nc1ccc(S(=O)(=O)NCC(=O)OCCOc2ccccc2)cc1[N+](=O)[O-],-19.9%,14.1%
Cc1ccc(-c2c(C(=O)N/N=C/c3ccsc3)nnn2-c2nonc2N)cc1,-8.8%,-12.3%
CC(C)(C)C(=O)N1N=C(c2cccc(NS(C)(=O)=O)c2)CC1c1cccs1 (configuration not stated),?,-11.4%
CCOc1ccc(N(C)S(=O)(=O)c2ccc3c(c2)CCCN3C(C)=O)cc1,·,-3.0%
CS(=O)(=O)N1CCC(C(=O)NCc2ccccc2)CC1,0.9%,1.2%
CN(C)c1ccc(NC(=O)c2cccc(N3C(=O)C4C5C=CC(C5)C4C3=O)c2)cc1 (configuration not stated),-7.4%,-9.7%
O=C(Nc1nnc(CCN2CCOCC2)s1)c1ccccc1,-3.4%,-6.3%
CCOC(=O)c1c(C)nc2ccccc2c1C,4.2%,-9.2%
CCN(CC)c1ccc(CNc2ccc(Br)cn2)cc1,2.1%,1.4%
CC1O[C@@H]2O[C@](O[C@H](C)CC[C@@H](C)O)(c3ccccc3)O[C@@H]2C[C@H]1O (some centres not stated),-1.5%,-8.1%
Clc1cccc(/C=N/Nc2ncnc3ccccc23)c1,-6.0%,?
CC(=O)OC[C@]1(OC(C)=O)C[C@@]23CC[C@H]4[C@@](C)(CCC[C@@]4(C)C(=O)O)[C@@H]2CC[C@@H]1C3,-1.2%,9.4%
Cc1ccc(CNC(=O)COC(=O)c2cc(C)oc2C)cc1,·,2.9%
CC1C=CCC2C(=O)N(c3ccc(OC(=O)c4cccs4)cc3)C(=O)C12 (configuration not stated),-1.4%,13.7%

Continued:
molecule,N370S GC,FEN1 inh
CC(=O)Nc1ccc(NC(=O)C(C)OC(=O)c2ccc(N(C)C)cc2)cc1 (configuration not stated),2.6%,2.2%
CCOC(=O)c1cc(C#N)c(N2CCCC2)nc1-c1ccccc1,6.6%,-0.2%
C/C(=N\NC(=O)Cc1ccc(Cl)c(Cl)c1)c1cccnc1,-3.8%,-17.5%
C=CCSC(CC)(CC)C(N)=O,1.4%,-0.7%
COc1ccc(-c2cc(C(=O)N3CCCc4ccccc43)no2)cc1,8.3%,3.1%
Cc1ccc(N(CC(N)=O)C2SC(=O)N(C)C2=O)cc1 (configuration not stated),-2.1%,-1.9%
CS(=O)c1ccccc1-c1nc(-c2ccc(Cl)cc2)no1 (configuration not stated),3.2%,0.1%
CCOC(=O)CN1C(=O)N(c2ccc(C)c(C)c2)S(=O)(=O)c2ccccc21,·,-20.1%
COc1ccc(/C(N)=N/OC(=O)c2ccc3c(c2)OCO3)cc1,-4.0%,1.8%
Cn1nc(C(=O)Nc2ccc(S(=O)(=O)N3CCCCC3)cc2)c2ccccc2c1=O,-2.8%,-15.9%
Cc1cccc(Nc2nnc(C)c(=O)n2N)c1,-4.8%,-5.2%
CC(C)Cn1c(=O)c2sccc2n2c(CCCC(=O)NCC(C)c3ccccc3)nnc12 (configuration not stated),·,-2.1%
Cc1ccc([N+](=O)[O-])cc1NC(=O)C1CCN(S(C)(=O)=O)CC1,2.6%,-12.9%
Cc1ccc(C)c(-c2cc(C(=O)NC3CC3)c3ccccc3n2)c1,-2.1%,13.0%
COC(=O)c1ccc(Cl)c(NC(=O)Cc2ccccc2[N+](=O)[O-])c1,6.5%,-2.6%
CCc1nc2nc(C)cc(Nc3cccc(C(F)(F)F)c3)n2n1,9.3%,3.4%
O=C(OCc1ccccc1)C1=NNC2C(=O)N(c3ccccc3)C(=O)C12 (configuration not stated),-0.2%,1.4%
O=C1C(=O)N(Cc2cccnc2)C(c2ccccn2)/C1=C(/O)c1ccccc1 (configuration not stated),-6.1%,8.5%
Cc1ccc(NC(=O)Cn2cc(C(=O)C3CC3)c3ccccc32)c(C)c1,-1.6%,-0.1%&14.1%
CC1CCC2C(=O)N(c3cccc(C(=O)Nc4ccc(F)cc4)c3)C(=O)C2C1 (configuration not stated),-4.7%,-5.0%
CCN(C(=O)COC(=O)c1ccccc1OCc1ccc(Cl)cc1)C1CCS(=O)(=O)C1 (configuration not stated),·,-11.8%
O=C(NCCc1ccc(Cl)cc1)c1ccc(=O)[nH]c1,-4.5%,0.6%
COc1ccc(S(=O)(=O)N2CCOCC2)cc1Cl,·,5.5%
Cc1cc(NC(=O)COC(=O)CCC(=O)c2ccc(F)cc2)no1,-2.5%,1.7%
COC(=O)CSc1nnc(SCc2ccc(Cl)cc2)s1,6.8%,3.2%
O=C(O)c1ccc(CSCc2ccccc2F)o1,14.7%,0.5%
CCn1c(SCC(=O)Nc2ccc(OCc3ccccc3)cc2)nnc1-c1ccco1,17.2%,-21.8%
Cc1noc(C)c1COc1ccccc1C(=O)Nc1cccc(S(=O)(=O)N(C)C)c1,15.1%,-6.6%
Cc1cc(/C=C2/C(=O)NN(c3ccccc3)C2=O)c(C)n1-c1cccc(O)c1,-16.3%,8.3%
C/C(N)=C(/C#N)C(=O)COC(=O)c1cccc(C)c1O,-9.9%,5.1%
S=c1nc(-c2ccccc2Cl)[nH][nH]1,-6.1%,3.1%
CCCN(CCC)C(=O)CCS(=O)(=O)c1cccc2nsnc12,2.5%,-8.8%
NC(=O)NC(=O)CSc1nc(-c2ccccc2)c(-c2ccccc2)n1CC1CCCO1 (configuration not stated),-5.5%,-16.1%
CCOc1ccc(OCC)c(NC(=O)CSc2nnc(Cn3cnc4ccccc43)n2C)c1,-1.3%,4.7%
COc1ccc(OC)c(NC(=O)Cn2c(CCC(=O)O)ccc2-c2ccccc2)c1,-7.3%,33.2%&-3.4%
CCOC(=O)C1CCN(S(=O)(=O)c2ccc(C)c(C(=O)NC3CCCCC3)c2)CC1,3.8%,-1.6%
COc1ccc(CNC(=O)C2CCC(CNS(=O)(=O)c3cccc4cccnc34)CC2)cc1 (configuration not stated),4.2%,0.3%
O=C(CN(Cc1ccccc1Cl)C(=O)CNS(=O)(=O)c1ccccc1)NCC1CCCO1 (configuration not stated),2.9%,4.6%
Cc1ccc(-n2nc3c(c2NC(=O)c2ccc4c(c2)OCO4)CSC3)cc1,-0.5%,-3.0%
CCCCC(=O)Nc1ccc(C(=O)N(CC)c2ccccc2C)cc1,-12.0%,6.4%
C=CCNC(=O)c1ccc(CNS(=O)(=O)c2ccc(NC(C)=O)cc2)cc1,2.5%,-4.4%
COC(=O)CSc1nnc(NC(=O)/C=C\c2ccc3c(c2)OCO3)s1,1.7%,-12.2%
Cc1cc(NS(=O)(=O)Cc2ccccc2)no1,-13.5%,-18.2%
CC(C)(C)Nc1c(-c2ccc(O)cc2)nc2ccc(Cl)cn12,14.8%,4.2%
CCCc1cc(C(=O)Nc2cccc(C(C)=O)c2)no1,13.9%,-17.9%
Cn1ccnc1C(O)c1ccc(OCc2ccccc2)cc1 (configuration not stated),0.0%,0.9%
COc1cccc(CNC(=O)CSc2nnc3c(n2)[nH]c2ccccc23)c1,-2.8%,5.7%
c1ccc2oc(Cc3ccc(Cc4nc5ccccc5o4)cc3)nc2c1,2.4%,16.2%
O=C(COC(=O)COc1ccc(Cl)cc1)NC1CCCCCC1,-2.9%,-7.6%

In a second layout: results already given
N370S GC | FEN1 inh | structure
1.7% | -12.2% | COC(=O)CSc1nnc(NC(=O)/C=C\c2ccc3c(c2)OCO3)s1
-13.5% | -18.2% | Cc1cc(NS(=O)(=O)Cc2ccccc2)no1
14.8% | 4.2% | CC(C)(C)Nc1c(-c2ccc(O)cc2)nc2ccc(Cl)cn12
13.9% | -17.9% | CCCc1cc(C(=O)Nc2cccc(C(C)=O)c2)no1

An excerpt; most or all hits stand in other tables.
